Mtb H37Rv: Mycobacterium tuberculosis H37Rv growth inhibition, putative kinase inhibitor library, confirmatory dose response (AID 2842) | M. tuberculosis H37Rv growth inhibition; higher % means a stronger effect; some inactives read as strong as hits | one-dose inhibition, % at 10 µg/mL; IC90 in µg/mL for titrated hits | 24,000 compounds, 5.2% hits;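 active means confirmed in a dose series; about a fifth of its hits are not listed in these tables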;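 further: bacteria incubated one week before Alamar blue readout; 0% = bacteria only wells and 100% = bacteria with high antibiotic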
* hit, by the source's call. A portion of the library; count on the stated rates, not on these rows.

Sample of the layout (five entries):
SMILES | Mtb H37Rv
CCC(CC)C(=O)Nc1c(C(=O)Nc2ccc(OC)cc2)oc2ccccc12 | 6.4%
O=c1nc(N/N=C/c2ccc(O)cc2)cn[nH]1 | -0.3%
N#CCSc1nc2sc3c(c2c(=O)[nH]1)CCCC3 | 2.1%
C=CCOc1ccc(/C(O)=C2\C(=O)C(=O)N(Cc3cccnc3)C2c2ccc(F)cc2)cc1 (stereo unspecified) | -8.8%
Cc1nc2ccc3nc(NC(=O)c4ccc(F)c(F)c4)sc3c2s1 | 8.2%

The whole of this part, repeating the preview:
SMILES | Mtb H37Rv
CCC(CC)C(=O)Nc1c(C(=O)Nc2ccc(OC)cc2)oc2ccccc12 | 6.4%
O=c1nc(N/N=C/c2ccc(O)cc2)cn[nH]1 | -0.3%
N#CCSc1nc2sc3c(c2c(=O)[nH]1)CCCC3 | 2.1%
C=CCOc1ccc(/C(O)=C2\C(=O)C(=O)N(Cc3cccnc3)C2c2ccc(F)cc2)cc1 (stereo unspecified) | -8.8%
Cc1nc2ccc3nc(NC(=O)c4ccc(F)c(F)c4)sc3c2s1 | 8.2%
O=C(Nc1ccc(F)c(F)c1)c1oc2ccccc2c1NC(=O)C1CCCCC1 | -6.6%
O=C(CSc1ccc2nnc(-c3ccccc3)n2n1)NCC1CCCO1 (stereo unspecified) | -11.0%
COc1cccc2cc(C(=O)NCc3ccc4c(c3)OCO4)c(=O)oc12 | 2.1%
CC(=O)Nc1ccc(S(=O)(=O)NCc2nnnn2-c2ccc(C)c(C)c2)cc1 | -3.3%
Cc1ccc(-n2nc3c(c2NC(=O)C2(c4ccc(Cl)cc4)CCCC2)CS(=O)C3)cc1 (stereo unspecified) | 16.3%
O=C(NCCc1ccc(Cl)cc1)c1cnc2n(c1=O)CCS2 | 16.8%
COc1ccc(NC(=O)Cn2cc(S(=O)(=O)c3ccc(C)c(C)c3)c(=O)c3cc(F)ccc32)cc1 | 4.6%
COC(=O)c1ccc(NC(=O)c2cn(-c3ccccc3)nc2-c2ccc(F)cc2)cc1 | -3.5%
COc1cccc(NC(=O)c2oc3ccccc3c2NC(=O)c2ccccc2Cl)c1 | 13.8%
Cc1cc(C)cc(NC(=O)CN2N=NC3C(=O)N(c4ccc(C)c(Cl)c4)C(=O)C32)c1 (stereo unspecified) | -12.1%
Cc1nnc(SCCn2c(N3CCN(CCO)CC3)nc3c2c(=O)n(C)c(=O)n3C)s1 | 12.2%
CC(=O)c1ccc(C(=O)Nc2nnc(-c3cc(C)ccc3C)o2)cc1 | 83.8%
O=C(CBr)Nc1nnc(-c2ccc(Cl)cc2)s1 | 20.1%
CC(=O)c1cccc(NC(=O)CSc2ccc(-c3ccccc3)nn2)c1 | -3.0%
O=C(Nc1nnc(-c2ccc(Br)cc2)o1)C(c1ccccc1)c1ccccc1 | -0.2%
COC(=O)CSC1=C(C#N)C(c2ccccc2)C(C(=O)Nc2ccccc2OC)=C(C)N1 (stereo unspecified) | 3.5%
O=C(CC1Sc2ccc(C(F)(F)F)cc2NC1=O)Nc1ccc(C(F)(F)F)cc1 (stereo unspecified) | 3.4%
Cc1c(C)n2c(SCc3ccccn3)nnc2[nH]c1=O | -2.9%
COC(=O)/C=C/c1ccc2noc(-c3ccc(C)cc3)c2c1 | 12.8%
Cc1cc(C)cc(C(=O)Oc2coc(CSc3ncccn3)cc2=O)c1 | 17.6%
Cc1ccc(NS(=O)(=O)c2ccc3c4c(cccc24)C(=O)N3)c(C)c1 | -10.1%
COc1ccc2nc(-c3ccc(F)c(NC(=O)c4cccc(C(F)(F)F)c4)c3)cn2n1 | 0.4%
COC(CNc1ncnc(N)c1[N+](=O)[O-])OC | 0.1%
CCOC(=O)c1ccc(NC(=O)CSc2nnc3[nH]c(=O)c(C)c(C)n23)cc1 | -13.5%
CCC(=O)Nc1nnc(SCC(=O)Nc2nnc(C)s2)s1 | 4.2%
Cc1ccnc(SCCn2c(N3CCC(C(N)=O)CC3)nc3c2c(=O)n(C)c(=O)n3C)n1 | -6.8%
Cc1ccc(-c2oc3ccccc3c(=O)c2OC(=O)c2ccncc2)cc1 | 75.1%
COc1ccc(/C=C\C(=O)Nc2c(C(=O)Nc3ccc(F)cc3)oc3ccccc23)cc1OC | 8.7%
CCCCCCCn1c(SCC(=O)c2ccc(Cl)cc2)nc2c1c(=O)[nH]c(=O)n2C | 10.0%
Cc1ccc(N2CC(NC(=O)COc3ccccc3F)CC2=O)cc1 (stereo unspecified) | 16.4%
CCCCn1c(CNC(=O)c2ccc([N+](=O)[O-])cc2)nnc1SCC(=O)OCC | -11.0%
CCSc1nc2c(c(=O)n(C)c(=O)n2C)n1CC(=O)c1ccccc1 | 2.1%
Cc1cc2cc(CNC(=O)c3ccc(Cl)c([N+](=O)[O-])c3)ccc2[nH]1 | -5.8%
CCn1c(SCC(=O)Nc2ccc(OC)cc2)nc2c(c1=O)SC(C)C2 (stereo unspecified) | 6.3%
Nc1c(C(=O)OCc2ccccc2)sc2nc(-c3ccccc3)cc(-c3ccco3)c12 | -2.6%
CCOc1ccc(-n2c(SCC(=O)NCc3ccccc3)nc3c([nH]c4ccccc43)c2=O)cc1 | 13.8%
COc1ccc(/C=N/NC(=O)c2ccncc2)cc1O | 82.9%
C/C(=N\Nc1nc2c(c(=O)[nH]c(=O)n2C)n1CC(C)C)c1ccccc1 | -0.6%
O=C(CSc1nc(-c2ccccc2)cc(=O)[nH]1)NCc1ccc2c(c1)OCO2 | -26.5%
O=C(Nc1nnc(-c2ccc(Cl)cc2)s1)c1cc(Cl)ccc1[N+](=O)[O-] | 9.5%
Cc1cc2c(cc1C)NC(CC(=O)NC(N)=O)C(=O)N2 (stereo unspecified) | 7.8%
Cc1ccc(N=Nc2c(C)[nH][nH]c2=O)cc1 | 10.1µg/mL*
O=C1CCc2cc(S(=O)(=O)Nc3cccc(F)c3)cc3c2N1CCC3 | 9.3%
O=C(Nc1ccccc1)c1cccc(Nc2nc(-c3ccccc3)c3cc(Br)ccc3n2)c1 | 65.9%
Cc1c(C(=O)Nc2ccc(S(N)(=O)=O)cc2)nnn1-c1cccc(C(F)(F)F)c1 | -14.2%
O=C(NCc1ccccc1)c1cc2ccccc2oc1=Nc1ccc(Cl)cc1Cl | 1.2%
COC(=O)c1cc(Cl)c(NC(=O)C2COc3ccccc3O2)cc1OC (stereo unspecified) | 2.6%
Cc1[nH]c2ccccc2c1SCCNC(=O)c1ccc(-c2ccccc2)cc1 | -3.4%
CC(=O)c1ccc(C(=O)N(CCCn2ccnc2)c2nc3c(C)cc(C)cc3s2)cc1 | 72.0%
CC1CCc2c(C(=O)Nc3ccc(OC(F)(F)F)cc3)csc2C1 (stereo unspecified) | 7.3%
COc1ccc(NC(=O)c2oc3ccccc3c2NC(=O)c2ccccc2Cl)c(OC)c1 | 60.4%
COc1ccccc1C(=O)Nc1cc(C)c2c(=O)oc3ccccc3c2n1 | 10.5%
O=c1[nH]cc(S(=O)(=O)Nc2ccccc2)c(=O)[nH]1 | -7.5%
CC1(C)CC(=O)c2sc(NC(=O)c3cccc(N4C(=O)CCC4=O)c3)nc2C1 | -5.9%
Cn1c(=O)c2c(nc3n2CC(COc2ccc4ccccc4c2)O3)n(C)c1=O (stereo unspecified) | -3.1%

Remaining list, next part.
SMILES | Mtb H37Rv
O=C(Nc1nnc(-c2ccc(F)cc2)o1)c1ccc(Br)s1 | <0.2µg/mL*
CC(=O)Cc1nsc(NC(=O)C2Cc3ccc(C)cc3C(=O)O2)n1 (stereo unspecified) | -9.0%
CCOCCCn1c(SCC(=O)Nc2ccc(C)cc2C)nc2c(oc3ccccc32)c1=O | -7.9%
O=C(Cc1csc(NC(=O)c2ccccc2)n1)NO | 1.0%
O=C(Nc1c(C(=O)Nc2ccc3c(c2)OCCO3)oc2ccccc12)c1cccc(C(F)(F)F)c1 | 51.2%
O=C1/C(=C/c2ccc(Cl)cc2)Oc2c1ccc(O)c2CN1CCOCC1 | 70.2%
COCCCn1c(=N)c(C(=O)NC(C)c2ccccc2)cc2c(=O)n3cccc(C)c3nc21 (stereo unspecified) | 41.8%
CS(=O)(=O)c1ccccc1-c1nnc(NC(=O)C2COc3ccccc3O2)o1 (stereo unspecified) | -8.3%
COc1cc(C(=O)Nc2nc3c(s2)CC(C)CC3)cc(OC)c1OC (stereo unspecified) | 65.7%
COc1ccc(CNC(=O)C(=O)NCCC2CCCCN2S(=O)(=O)c2ccccc2)cc1 (stereo unspecified) | -4.2%
Cc1ccc(/C(O)=C2\C(=O)C(=O)N(c3ccccn3)C2c2cccc([N+](=O)[O-])c2)cc1 (stereo unspecified) | 79.8%
CC(=O)c1ccc(NC(=O)CSc2ccc3nnc(-c4cccs4)n3n2)cc1 | -6.5%
CCOc1ccc2nc(NC(=O)c3ccc(Cc4ccccc4)cc3)sc2c1 | 16.2%
Cc1cccc(NC(=O)CSc2nnc(CNC(=O)c3ccc(S(=O)(=O)N(C)C)cc3)o2)c1 | 0.9%
COc1cccc(N2CCCn3c2nc2c3c(=O)n(CC(=O)O)c(=O)n2C)c1 | -11.2%

Six structures already listed, sorted by heavy-atom count, rising.
SMILES | Mtb H37Rv
O=C(CSc1nc(-c2ccccc2)cc(=O)[nH]1)NCc1ccc2c(c1)OCO2 | -26.5%
O=C(NCc1ccccc1)c1cc2ccccc2oc1=Nc1ccc(Cl)cc1Cl | 1.2%
CCCCCCCn1c(SCC(=O)c2ccc(Cl)cc2)nc2c1c(=O)[nH]c(=O)n2C | 10.0%
COC(=O)c1ccc(NC(=O)c2cn(-c3ccccc3)nc2-c2ccc(F)cc2)cc1 | -3.5%
O=C(Nc1ccccc1)c1cccc(Nc2nc(-c3ccccc3)c3cc(Br)ccc3n2)c1 | 65.9%
O=C(Nc1c(C(=O)Nc2ccc3c(c2)OCCO3)oc2ccccc12)c1cccc(C(F)(F)F)c1 | 51.2%

The results go on:
SMILES | Mtb H37Rv
O=C(c1ccccc1F)N1CCN=C1SCc1ccc([N+](=O)[O-])cc1 | -10.3%
O=C(Cn1ccn(-c2cccc3ccccc23)c(=O)c1=O)Nc1ccc(F)cc1 | -11.4%
Cc1ccc(N2CC(NS(=O)(=O)N(C)C)CC2=O)cc1C (stereo unspecified) | -7.3%
Cc1nnc(NC(=O)CSc2nc3c(c(=O)n2-c2ccccc2)SCC3)s1 | -2.2%
Cc1ccc(NC(=O)c2cc(=O)c3ccccc3o2)c(C(=O)c2ccccc2)c1 | -8.0%
COC(=O)C(C)Sc1nc2c(c(=O)[nH]c(=O)n2C)n1CCCc1ccccc1 (stereo unspecified) | 9.6%
COc1ccc(-n2ccnc(SCc3cccc(F)c3)c2=O)cc1OC | 5.6%
CCOc1ccc(-c2nnc3c4cc5c(cc4n(Cc4ccccc4F)cc2-3)OCCO5)cc1 | 30.4%
Cc1ccc(C2/C(=C(\O)c3ccc(F)cc3)C(=O)C(=O)N2c2nncs2)cc1 (stereo unspecified) | 18.3%
Cc1ccc(C#N)c(SCCCn2c(=O)[nH]c3ccccc32)n1 | 3.7%
CC(=O)c1cccc(NC(=O)CSc2nncc(=O)[nH]2)c1 | -19.8%
CCOc1ccc(C(=O)Nc2sc3c(c2C#N)CCN(Cc2ccccc2)C3)cc1 | -8.2%
CCOC(=O)c1nn(-c2ccc(C)cc2)c(=O)c2c(NC(=O)Cc3cccc(C)c3)scc12 | -0.6%
CCS(=O)(=O)c1cccc(C(=O)Nc2nc(-c3ccc(Cl)cc3Cl)cs2)c1 | 75.5%
Cc1ccc(C(=O)NCCc2cc3ccc(C)cc3[nH]c2=O)cc1 | -3.4%
Cc1cc(NC(=O)CSc2nnc(-c3ccncc3)o2)no1 | 7.04µg/mL*
CCCCOc1ccc(C(=O)Nc2sc3c(c2C#N)CC(C)(C)NC3(C)C)cc1 | 5.0%
O=C(Nc1ccc(S(=O)(=O)Nc2nccs2)cc1)c1ccc(Cl)cc1 | 15.2%
Nc1nc(SCC(=O)NCC2CCCO2)[nH]c(=O)c1NC(=O)c1cccs1 (stereo unspecified) | -5.1%
COC(=O)c1ccc(-c2csc(NC(=O)c3cc(OC)cc(OC)c3)n2)cc1 | 3.3%
Cc1ccc(C)c(CSc2nnc(C)c(=O)n2N)c1 | 5.8%
Fc1ccc(CSc2ccc3nnc(-c4ccncc4)n3n2)cc1 | 4.8%
COc1ccccc1NC(=O)CSc1nnc2ccc(-c3cccc([N+](=O)[O-])c3)nn12 | 6.7%
CC1CCN(S(=O)(=O)c2ccc(C(=O)Nc3nc(-c4ccc(Cl)cc4)cs3)cc2)CC1 | -3.1%
COc1cccc(C(c2sc3nc(C)nn3c2O)N2CCCCC2)c1 (stereo unspecified) | -3.3%
COc1ccccc1-n1c(SCC(=O)Nc2ccc(F)cc2F)nc2c(c1=O)SCC2 | 5.6%
Cc1ccccc1Cn1c(CN2CCN(c3ccccc3)CC2)nc2c1c(=O)n(C)c(=O)n2C | 3.6%
Cc1ccc2cc(CCNC(=O)COc3ccc4ccccc4c3)c(=O)[nH]c2c1C | -1.1%
N#Cc1ccsc1NC(=O)c1cc(-c2cccs2)nc2ccccc12 | 7.6%
NC(=O)C1CCN(C(c2cccc(F)c2)c2sc3ncnn3c2O)CC1 (stereo unspecified) | -8.7%
COc1ccc(/C=C/C(=O)Nc2ccc(S(=O)(=O)N3CCc4ccccc43)cc2)cc1 | 59.3%
CC1CCN(S(=O)(=O)c2ccc(NC(=S)NC(=O)C3CC3)cc2)CC1 | 3.7%
CCc1nc(SCC(=O)Nc2ccc(C)cc2C)c2c(=O)n(C)c(=O)n(C)c2n1 | 3.4%
O=C(Nc1nnc(-c2ccc(Cl)cc2)s1)c1ccccc1[N+](=O)[O-] | 12.6%
Cc1ccc(NC(=O)Cn2cnc3c(cnn3-c3cccc(Cl)c3)c2=O)cc1Cl | -5.4%
CC(O)CNC(=O)Cc1cc(=O)[nH]c(=O)[nH]1 (stereo unspecified) | 4.0%
O=C(COc1ccc2ccccc2c1)Nc1nnc2n1CCS2 | 23.6µg/mL*
O=C(O)CCc1nc2ccccc2[nH]1 | -2.8%
Cc1cccc(NC(=O)CSc2nnc3ccc(-c4cccnc4)nn23)c1C | -3.5%

Screens from PubChem BioAssay.
